Screening data: PubChem BioAssay, Johns Hopkins Ion Channel Center
KCNQ2 block = KCNQ2 channel blockers in CHO-K1 cells – cell-based, FluxOR thallium flux, B-score, primary screen (AID 2156). O88943. 20 min; active compounds read low; only compounds with negative scores are shown here; some inactives read as strong as hits. B-score at 10 µM. 310,000 compounds, 1.1% hits;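 active means fluorescence ratio B-score at most minus 3 library SDs, with starting brightness B-score within 2 library SDs, cut at about -5.5 in these data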
Target sequence (O88943 whole entry, looked up): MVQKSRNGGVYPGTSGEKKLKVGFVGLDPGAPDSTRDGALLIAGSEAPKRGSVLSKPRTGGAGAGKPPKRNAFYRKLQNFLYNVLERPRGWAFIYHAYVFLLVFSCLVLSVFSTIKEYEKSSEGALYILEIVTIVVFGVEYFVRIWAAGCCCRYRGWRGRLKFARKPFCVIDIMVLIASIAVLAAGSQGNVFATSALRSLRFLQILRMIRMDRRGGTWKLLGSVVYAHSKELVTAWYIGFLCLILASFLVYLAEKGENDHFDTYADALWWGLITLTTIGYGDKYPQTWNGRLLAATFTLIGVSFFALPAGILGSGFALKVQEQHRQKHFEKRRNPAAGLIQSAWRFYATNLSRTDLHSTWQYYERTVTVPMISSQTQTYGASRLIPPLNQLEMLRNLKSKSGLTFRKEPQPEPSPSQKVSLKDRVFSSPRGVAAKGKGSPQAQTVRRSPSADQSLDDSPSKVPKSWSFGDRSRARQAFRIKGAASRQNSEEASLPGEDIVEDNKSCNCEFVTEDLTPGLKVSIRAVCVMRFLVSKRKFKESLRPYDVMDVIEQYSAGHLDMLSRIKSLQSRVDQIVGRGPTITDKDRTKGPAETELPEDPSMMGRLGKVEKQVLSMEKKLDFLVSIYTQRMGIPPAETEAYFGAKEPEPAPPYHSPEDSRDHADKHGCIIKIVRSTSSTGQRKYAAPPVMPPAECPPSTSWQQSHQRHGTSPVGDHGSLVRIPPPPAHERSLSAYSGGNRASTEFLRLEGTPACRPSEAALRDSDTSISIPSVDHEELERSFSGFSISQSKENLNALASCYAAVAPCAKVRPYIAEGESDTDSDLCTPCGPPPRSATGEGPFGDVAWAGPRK
KCNQ2 block baseline = second read-out of KCNQ2 block, no call of its own (marks repeat the call); B-score; measured here: initial fluorescence intensity artifact check;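 brightness before thallium and not channel activity; 0 = typical well and far values either way flag optical interference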
Active calls of the source: *; i = inactive.

SMILES	KCNQ2 block	KCNQ2 block baseline
COC(=O)C1=C(c2ccc(S(C)(=O)=O)cc2)C[C@@H]2CC[C@H]1N2C(=O)NC1CC1	i	-3.53
CCN(CC)CCCN=C(C)c1c(O)n(C2CCCCC2)c(=O)[nH]c1=O	i	2.77
Cn1c(O)c(/C=C2\N=c3ccccc3=C2CCNC(=S)NC2CC2)c(=O)n(C)c1=O	i	2.45
O=C1NC(=O)C(CCc2ccncc2)(Cc2ccc(OCc3ccccc3)cc2)C(=O)N1	i	0.22
COC(=O)c1ccccc1N=Cc1c(O)[nH]c(=S)[nH]c1=O	i	2.26
CC1(C)C(=O)C=C[C@]2(C)[C@H]3CC[C@@]4(C)[C@H](c5ccoc5)OC(=O)[C@H]5O[C@]54[C@]3(C)[C@H](O)C[C@@H]12	i	-0.27
Cc1ccc2c(c1)C1CN(C)CCC1N2C(=O)Nc1cccc(C(F)(F)F)c1 (stereo not given)	i	-0.73
O=C(c1cc2c(s1)CCCCCC2)N1CCC2(CC1)OCCO2	i	-0.88
CCOC(=O)c1sc(/N=C/c2c(O)n(-c3ccccc3)c(=O)[nH]c2=O)c(C#N)c1C	i	0.71
COc1ccc(-n2c(/C=C/c3ccc(O)c(OC)c3)nc3ccccc3c2=O)cc1	i	0.23
CC(NC1CCCCC1)C(O)C12CC3CC(CC(C3)C1)C2 (stereo not given)	i	0.66
O=C(Nc1cccc2ccccc12)N1CCC2(CC1)OCCO2	i	1.47
CCCN(CC1CC1)CC(O)c1ccccc1 (stereo not given)	i	-0.89
CCCNc1oc(-c2cccc3ccccc23)nc1C#N	i	-1.55
O=C1NC(=O)N(Cc2ccccc2)C(=O)/C1=C\N1CCCc2ccccc21	i	0.01
O=P(Nc1ccccc1)(Nc1ccccc1)Oc1cccc(Cl)c1	-7.71*	0.17*
O=C(c1cnn2c(C(F)(F)F)cc(-c3ccccc3)nc12)N1CCC2(CC1)OCCO2	i	0.96
CN1CCC(O)(c2ccc(Cl)cc2)C(C(=O)c2ccc(Cl)cc2)C1 (stereo not given)	i	0.58
C=Cn1ccnc1P(=S)(c1ccn(C)c1)c1nccn1C=C	i	1.66
CC(=O)Nc1nnc(CCN(CCc2nnc(NC(C)=O)s2)[N+](=O)[O-])s1	i	-0.08
CC(C)NC(=O)c1ccc(N2CC3CC(C2)c2cccc(=O)n2C3)c([N+](=O)[O-])c1 (stereo not given)	i	0.43
CCOc1c(P(=S)(N(C)C)N(C)C)c(C)nn1-c1ccccc1	i	-1.34
CCCn1c(C(=O)c2ccc(OC)cc2)nc2ccccc21	i	1.08
CCOC(=O)C1(c2ccccc2)CCN(CC(=O)Nc2cccc3ccccc23)CC1	i	-0.63
COc1cccc(CC(=O)N2CCN(Cc3cccc(Cl)c3)CC2)c1	i	-0.02
O=C1/C(=C\c2ccc(Cl)c(Cl)c2)N2CCC1CC2	i	-0.65
CCCCCn1c(=O)c(C(=O)Nc2ccccc2Cl)c(O)c2ccccc21	i	-0.24
Cc1cc(C)cc(N2C(=O)NC(=O)/C(=C/c3cccn3-c3ccc(Cl)cc3)C2=O)c1	i	2.58
COc1ccc(CN2CCN(C(=O)COc3ccc4ccccc4c3)CC2)c(OC)c1	i	-1.38
CCCCn1c(N)c(C(=O)OCC2CCCO2)c2nc3ccccc3nc21 (stereo not given)	i	-1.11
C=CCN1C(=O)/C(=C\c2ccc(N3CCOCC3)o2)C(=O)NC1=S	i	8.62
Cc1ccc(-n2c(O)c(C=NCCCn3ccnc3)c(=O)[nH]c2=O)cc1	i	1.65
CN(C)C(=O)Oc1cccc(-c2cn3cc(Cl)ccc3n2)c1	i	-0.77
O=C(CN1CCCC1=O)NCCc1ccccc1	i	-1.97
COC(=O)c1c(C)n(Cc2ccco2)c2ccc(O)cc12	i	-0.74
COc1ccc2[nH]c(C)c(CCNCc3cc(OC)c(OC)c(OC)c3)c2c1	i	-1.3
COc1ccc(CN2C(=O)NC(=O)/C(=C\c3cccc(OC)c3OC)C2=O)cc1	i	-1.99
CCCCC(=O)N/N=C/c1c(O)n(Cc2ccco2)c(=O)[nH]c1=O	i	-1.36
CC(=O)OC1(c2ccccc2)CCN(C2CCCCC2)CC1C (stereo not given)	i	-0.05
N#CCCn1cc(C(=O)Nc2ccccc2Cl)c(-c2ccc(F)cc2)n1	i	0.01
CCC(C)n1c(O)c(C=NCCc2ccccc2)c(=O)[nH]c1=S (stereo not given)	i	-0.65
CCN1CCC2(CC1)NC(CO)(CO)CO2	i	3.45
Cc1cccc(-n2c(-c3ccccc3)nc3ccccc3c2=O)n1	i	1.11
Cc1ccc(-c2nn(CCC#N)cc2C(=O)O)cc1C	i	-0.03
O=C(OCC(=O)c1ccc([N+](=O)[O-])cc1)/C(=C\c1ccc(Cl)cc1)NC(=O)c1ccccc1	i	0.91
Cn1c(O)c(C(=Nc2ccc(F)cc2)c2ccccc2Cl)c(=O)n(C)c1=O	i	-1.29
CN(C)c1ccc(C=C2C(=O)NC(=O)NC2=O)cc1[N+](=O)[O-]	i	-0.55
O=C(c1ccc(N2CCCCC2)c([N+](=O)[O-])c1)N1CCC2(CC1)OCCO2	i	1.03

Look-ups from the list:
Cc1ccc2c(c1)C1CN(C)CCC1N2C(=O)Nc1cccc(C(F)(F)F)c1 (stereo not given) | KCNQ2 block baseline = -0.73
COc1ccc(CN2C(=O)NC(=O)/C(=C\c3cccc(OC)c3OC)C2=O)cc1 | KCNQ2 block baseline = -1.99

Next results follow.
SMILES	KCNQ2 block	KCNQ2 block baseline
CCC1CN(C)CCC1(OC(C)=O)c1ccccc1 (stereo not given)	i	-1
Cc1cc(Cl)ccc1C(=O)C1CCCN(C2CCSCC2)C1 (stereo not given)	i	-0.43
CCC(=NCCOc1ccc(Cl)cc1)c1c(O)n(C)c(=O)n(C)c1=O	i	-1.68
CC[N+]1(C)CCCC(OC(=O)C(O)(c2ccccc2)c2ccccc2)C1 (stereo not given)	i	-1.22
CC12CN3CC(C)(CN(C1)C3c1cccs1)C2 (stereo not given)	i	2.4
Cc1cc(Oc2cc(NN3CCCCC3)c([N+](=O)[O-])cc2[N+](=O)[O-])ccc1[N+](=O)[O-]	i	-0.41
CC(=O)N1CC(=O)Nc2ccc(F)cc2C1c1ccccc1 (stereo not given)	i	-0.1
CCC1(CC)C(=O)NC(=NCCc2c[nH]c3ccccc23)NC1=O	i	-0.91
Oc1cccc(/C=N/NP(=S)(c2ccccc2)c2ccccc2)c1	i	-2.55
CCOc1ccc(N=Cc2c(O)n(CCc3ccc(OC)c(OC)c3)c(=O)[nH]c2=O)cc1	i	1.52
CC(C)n1c(=O)c(C=Nc2ccc(Cl)cc2)c(O)n(Cc2ccco2)c1=O	i	2.46
Cc1ccc2nc(C)n(-c3ccc(F)cc3)c(=O)c2c1	i	-0.23

Of the compounds above, three have a thiophene ring, fused or not:
SMILES	KCNQ2 block	KCNQ2 block baseline
O=C(c1cc2c(s1)CCCCCC2)N1CCC2(CC1)OCCO2	i	-0.88
CCOC(=O)c1sc(/N=C/c2c(O)n(-c3ccccc3)c(=O)[nH]c2=O)c(C#N)c1C	i	0.71
CC12CN3CC(C)(CN(C1)C3c1cccs1)C2 (stereo not given)	i	2.4

Carrying on.
SMILES	KCNQ2 block	KCNQ2 block baseline
CC(=O)Nc1ccc(OC(=O)c2ccccc2N)cc1	i	-0.2
CC(C)CN(C(=O)CN1CC=C(c2ccccc2)CC1)c1c(N)n(CC(C)C)c(=O)[nH]c1=O	i	0.04
Cn1cc(C=C(C#N)C#N)c2ccccc21	i	-0.07
OC(COCc1ccc(Cl)cc1)CN1CC=C(c2ccccc2)CC1 (stereo not given)	i	-1.43
Cc1ccc(P(=S)(c2ccc(C)o2)N2CCOCC2)o1	i	0.79
CCOP(=S)(OCC)Oc1cc(C)oc(=O)c1	i	0.94
Oc1ccccc1C1NCc2ccccc2-n2cccc21 (stereo not given)	i	-0.58
C[N+]1(CC2COC(c3ccco3)O2)CCCCC1 (stereo not given)	i	0.24
CSc1ncc(/C=C2/C(=O)NC(=O)N(C)C2=O)cn1	i	-0.48
CCCC(C)C(=O)NC1CCSC1=O (stereo not given)	i	1.23
Cc1c(C)c2cc(Cl)c(OCC(=O)N3C[C@H]4C[C@@H](C3)c3cccc(=O)n3C4)cc2oc1=O	i	-0.69
C=CCn1c(O)c(/C=N/NC(=O)c2ccncc2)c(=O)[nH]c1=O	i	-0.36

6 of the compounds above, with two lines to a compound:
Order of results – KCNQ2 block	KCNQ2 block baseline
> CCOP(=S)(OCC)Oc1cc(C)oc(=O)c1
  i	0.94
> Oc1ccccc1C1NCc2ccccc2-n2cccc21 (stereo not given)
  i	-0.58
> C[N+]1(CC2COC(c3ccco3)O2)CCCCC1 (stereo not given)
  i	0.24
> CSc1ncc(/C=C2/C(=O)NC(=O)N(C)C2=O)cn1
  i	-0.48
> CCCC(C)C(=O)NC1CCSC1=O (stereo not given)
  i	1.23
> Cc1c(C)c2cc(Cl)c(OCC(=O)N3C[C@H]4C[C@@H](C3)c3cccc(=O)n3C4)cc2oc1=O
  i	-0.69

Two of the compounds above, bar-delimited:
canonical_smiles | KCNQ2 block | KCNQ2 block baseline
O=C(OCC(=O)c1ccc([N+](=O)[O-])cc1)/C(=C\c1ccc(Cl)cc1)NC(=O)c1ccccc1 | i | 0.91
Cn1c(O)c(C(=Nc2ccc(F)cc2)c2ccccc2Cl)c(=O)n(C)c1=O | i | -1.29

(further entries)
SMILES	KCNQ2 block	KCNQ2 block baseline
O=CC(Cl)P(=O)(N1CCCCC1)N1CCCCC1 (stereo not given)	i	1.99
Cn1c(O)c(C(=N)COc2ccccc2)c(=O)n(C)c1=O	i	0.85
O=c1[nH]c(=O)n(C2CCCCCC2)c(O)c1C=NCc1cccnc1	i	0.06
O=C(Nc1ccc(Cl)cc1)OC1CN2CCC1CC2 (stereo not given)	i	1.26
COc1ccccc1CCNC1CCCCCC1	i	0.5
CCc1n[nH]c(CCN)n1	i	-0.63
CN1CC(C(=O)c2ccc(Cl)cc2)C(c2ccc(Cl)cc2Cl)C1 (stereo not given)	i	-0.05
CC1=C[C@@H]2c3cccc4[nH]cc(c34)C[C@H]2N(C)C1	i	5.47
Cc1ccc2c(c1)cc1c(=O)n(CC(=O)N3CCC4(CC3)OCCO4)nc(C)n12	i	-1.39
COc1ccc(C(=O)N2C[C@H]3C[C@@H](C2)c2cccc(=O)n2C3)cc1OC	i	3.89
Cc1ccc(-c2cc(-c3ccc(C)cc3)[n+](-c3ccc(C(=O)[O-])cc3)c(-c3ccc(C)cc3)c2)cc1	i	-1.71
C[N+]12CCC(CC1)C(C#N)(N1CCOCC1)C2 (stereo not given)	i	-0.88
CCCCc1ccc2[nH]cc(CCN)c2c1	i	0.28
Nc1c(C(=O)NCCc2ccccc2)c2nc3ccccc3nc2n1CCN1CCOCC1	i	1.29
COc1ccc(N2C(=O)NC(=O)/C(=C/c3ccc4c(c3)Cc3ccccc3-4)C2=O)cc1	i	-0.95
Cc1ccc(-n2c(O)c(C=Nc3ccc(Br)cn3)c(=O)[nH]c2=O)cc1	i	-1.05
O=C(c1ccccc1F)c1cn(CC(=O)N2CCCC2)c2ccccc12	i	2.29
CN1c2ccc([N+](=O)[O-])cc2CC2(C(=O)NC(=O)NC2=O)C1c1ccccc1 (stereo not given)	i	-0.88
Cc1nn(Cc2ccccc2)c(C)c1C(=O)OCC(=O)Nc1cc(S(C)(=O)=O)ccc1Cl	i	-1.63
CCCCC(=O)N/N=C/c1c(O)n(CCc2ccccc2)c(=O)[nH]c1=O	i	0.05
CN(C)P(=S)(Nc1ccccc1)C(Cl)(Cl)Cl (stereo not given)	i	-0.48
CC(N)C(=O)c1ccco1 (stereo not given)	i	2.56
CCc1ccccc1NC(=O)CNC1CCCCC1	i	-1.48
CN(C)C(Cc1ccccc1)C(=O)c1c[nH]c2ccccc12 (stereo not given)	i	-0.07

An excerpt; the hit share may differ from the screen's.
